High-throughput results as filed in PubChem.
H5N1 CPE – MDCK cell protection from H5N1 avian flu; cytopathic effect, luminescence, 72 h; stronger effect = higher value; no value below 0 was filed and about half of the inactive calls have no number; reference of the scale not given here; AID 740, 2007; inhibition, % at 50 µM; 96,000 compounds, 0.07% hits; in the data active = inhibition above about 25%
Active calls of the source: *; i = inactive. This is a subset; count on the stated rates, not on these rows.

SMILES	H5N1 CPE
CC(C)(C)NC(=O)CSc1nsc(SCC(=O)NC(C)(C)C)c1C#N	i
CCOC(=O)c1cnn(-c2ccc(C(F)(F)F)cn2)c1N	i
COc1ccc2c(c1)CC(C1(O)C(=O)Nc3ccccc31)C2=O (stereo unspecified)	i
COc1ccc(Cl)c(Cn2c(NCc3ccco3)nc3c2c(=O)n(C)c(=O)n3C)c1	0.3
Cc1cc(C(=O)N2CCN(C(=O)C3CCCO3)CC2)no1 (stereo unspecified)	1.0
CCOC(=O)c1cc2sc(C)cc2n1CC(=O)N1CCc2ccccc21	1.0
CCOC(=O)c1[nH]c(C)c(CN(CCc2ccccc2)S(C)(=O)=O)c1C	i
COc1ccc(-c2ncncc2-c2csc(C)n2)c(O)c1	1.9
c1ccc(-c2cnnc(N3CCCCC3)n2)cc1	i
CC(=O)CCc1ccc(OC(=O)c2cccnc2)cc1	i
COc1ccc2c(c1)c1ncn(CCN3CCNCC3)c(=O)c1n2C	i
CC(=O)OC(C(=O)n1nc(C)cc1C)c1ccccc1 (stereo unspecified)	0.5
CSc1nc2ccc(S(=O)(=O)NC3CCCCC3)cc2s1	i
Cc1c(C(=O)OC2CCCCC2)[nH]c2c1C(=O)CC(C)(C)C2	i
Cc1nc2ncnn2c(C)c1Cc1ccc(Cl)cc1	1.2
Cc1ccc2nc(N3CCN(S(=O)(=O)c4ccc5c(c4)OCCO5)CC3)c(C#N)cc2c1	1.6
Cc1ccc(NC(=O)c2ccccc2N(C)S(C)(=O)=O)cc1C	0.0
Cn1c(SCC(=O)NCC2CCCO2)nnc1-c1ccc(S(=O)(=O)N2CCCC2)cc1 (stereo unspecified)	0.5
COC(=O)c1cccc(S(=O)(=O)N2CCC(C)CC2)c1	i
COc1ccc(NC(=O)C(NC(C)=O)C(=O)NCc2ccccc2Cl)cc1 (stereo unspecified)	i
Cc1ccc(NC(=O)COc2ccccc2CNC(C)(C)CC(C)(C)C)cc1	i
CCOC(=O)C1CCN(S(=O)(=O)Cc2ccccc2)CC1	0.8
Cn1c(SCC(=O)NCc2ccc3c(c2)OCO3)nc2scc(-c3cccs3)c2c1=O	0.9
CCOC(=O)C(CCCOc1cccc(OC)c1)C(=O)OCC	0.7
O=C(Nc1ccn(Cc2c(F)c(F)cc(F)c2F)n1)c1ccc(COc2ccc(Cl)cc2Cl)o1	i
O=c1cc(O)c2c(=O)n(C3CCCCC3)c3ccccc3c2o1	i
Cc1ccccc1NC(=O)c1ccc2c(c1)C(=O)N(CCC(C)C)C2=O	i
CC1(C)CC(=O)C(C=NCc2cccnc2)=C(O)C1	i
c1ccc(Cn2nnnc2C(c2cccs2)N2CCc3ccccc3C2)cc1 (stereo unspecified)	2.4
COC(=O)c1ccc(S(=O)(=O)N2C3CCC2CC(NC(=O)NC2CCCCC2)C3)cc1 (stereo unspecified)	0.7
[O-]/C(=C(\C(=S)Nc1cccc2ccccc12)[n+]1ccccc1)c1ccc2c(c1)OCCO2	i
Cc1ccccc1OCC(=O)OC(C)CN1CCN(C)CC1 (stereo unspecified)	0.2
N#Cc1ccccc1NC(=O)CSc1nnc(-c2ccccc2)n1-c1ccccc1	i
O=C(Nc1ccc(N2CCOCC2)cc1)c1cccc(S(=O)(=O)N2CCC(Cc3ccccc3)CC2)c1	i
CCCCCOC(=O)CSc1n[nH]c(=O)[nH]c1=O	i
CCOC(=O)c1oc2ccccc2c1NC(=O)c1ccc(Cl)s1	i
CCOC(=O)C1=C(O)C(Nc2nc3ccccc3s2)(C(F)(F)F)N=C1C (stereo unspecified)	i
COc1ccc(C(=O)Nc2ccc(Cl)cc2C(=O)NCCN2CCOCC2)cc1	i
COc1ccc(-n2c(C)nc3cc(C(=O)NCCN4CCOCC4)ccc32)cc1	2.2
O=C(O)CCCC(=O)NCc1ccccn1	i

Brought forward from above: 7 compounds, followed by the next part.
SMILES	H5N1 CPE
O=C(Nc1ccc(N2CCOCC2)cc1)c1cccc(S(=O)(=O)N2CCC(Cc3ccccc3)CC2)c1	i
CCCCCOC(=O)CSc1n[nH]c(=O)[nH]c1=O	i
CCOC(=O)c1oc2ccccc2c1NC(=O)c1ccc(Cl)s1	i
CCOC(=O)C1=C(O)C(Nc2nc3ccccc3s2)(C(F)(F)F)N=C1C (stereo unspecified)	i
COc1ccc(C(=O)Nc2ccc(Cl)cc2C(=O)NCCN2CCOCC2)cc1	i
COc1ccc(-n2c(C)nc3cc(C(=O)NCCN4CCOCC4)ccc32)cc1	2.2
O=C(O)CCCC(=O)NCc1ccccn1	i
O=C(c1ccc(S(=O)(=O)N2CCOCC2)cc1)N1CCc2ccccc2C1	0.2
COc1ccc(-c2nsc(SCC(=O)Nc3cc(C)on3)n2)cc1	i
COc1ccc2ccccc2c1CN1CCCC(CO)C1 (stereo unspecified)	1.9
CCc1cc(/C(Cc2cscn2)=N\O)c(O)cc1O	0.7
NC(=O)C1CCN(C2=C(Cl)C(=O)c3ccccc3C2=O)CC1	i
Fc1c(F)c(C(F)(F)F)c(F)c(F)c1N/N=C\c1cccs1	i
CN(CC(=O)NCc1ccncc1)S(=O)(=O)c1ccccc1	0.2
CCN(CC)CCOC(=O)c1cccc(Cl)c1	2.8
O=C(COC(=O)c1ccc(Br)c(S(=O)(=O)N2CCOCC2)c1)NCC1CCCO1 (stereo unspecified)	0.6
Cc1ccccc1C(=O)NCc1nnc(SCC(=O)N2CCN(c3ccccc3)CC2)n1C	i
Brc1c(CSc2nncn2-c2ccccc2)nc2ncccn12	2.4
Cc1ccc(S(=O)(=O)c2c(C)nn(C(C)(C)C)c2OC(=O)c2ccco2)cc1	0.6
COc1cc(C(c2sc3nc(C)nn3c2O)N2CCc3ccccc3C2)cc(OC)c1OC (stereo unspecified)	2.0
O=C(c1c(F)c(F)c(F)c(F)c1F)N(Cc1ccccc1)Cc1ccccc1	1.8
CCOC(=O)C(NC(=O)CC)(Nc1ccc(C(O)(C(=O)OCC)C(F)(F)F)cc1C)C(F)(F)F (stereo unspecified)	i
O=C(CCSc1nnc(-c2ccncc2)o1)Nc1ccccc1	i
COc1ccc(C(=O)/C=C/N(C)C)cc1	1.3
Cc1ccc2nc(SCC(=O)N3CCOCC3)[nH]c2c1	i
COCc1cc(C)nc(Nc2cc(C)ccc2C)c1C#N	i
Cc1cc(C)c(NC(=O)CS(=O)CC(=O)NC2CCCc3ccccc32)c(C)c1 (stereo unspecified)	0.1
Cc1cc(N)c(-n2cc3c(=O)n(C)c(=O)n(C)c3c2)cc1C	i
COc1ccc(Cn2nnnc2C(C(C)C)N2CCN(c3ccccc3OC)CC2)cc1 (stereo unspecified)	0.9
COc1ccc(CCNC(C)CCc2ccc(OC)cc2)cc1 (stereo unspecified)	i
CC(=O)Nc1ccc(S(=O)(=O)N(C)CCOCc2ccccc2)cc1	1.0
CC(=O)Nc1sc2c(c1C(c1ccccc1)N1CCOCC1)CCCC2 (stereo unspecified)	0.8
CCOC(=O)c1cnc(N2CCOCC2)[nH]c1=O	0.2
O=C1CC(Nc2ccccc2)C(=O)N1Cc1ccccc1 (stereo unspecified)	i
CCc1c(O)nc(SCC(=O)Nc2ccc(C)cc2)n(C2CCCCC2)c1=O	0.4
CC(C)(C)NS(=O)(=O)c1ccc(CCC(=O)N2CCCCC2)cc1	1.4
Cc1cccc(NCC(O)Cn2cnc3c2c(=O)n(C)c(=O)n3C)c1 (stereo unspecified)	0.6
C[N+]12CCC(CC1)C(C(O)(c1ccccc1)c1cccs1)C2 (stereo unspecified)	0.5
OC(COCCC12CC3CC(CC(C3)C1)C2)CN1CCCCC1 (stereo unspecified)	0.4
O=C(CSc1nc2ccccc2o1)NC(=O)NCc1ccccc1	i
CN=C1SC(CC(=O)Nc2ccc(N3CCOCC3)cc2)C(=O)N1C (stereo unspecified)	0.4
O=C(CCC(=O)c1cccs1)Nc1ccc(F)c(F)c1F	0.8
CC(C)(C)C1=C(C#N)C(c2ccc3c(c2)OCO3)C(C#N)=C(N)O1 (stereo unspecified)	i
CCn1c2ccccc2c2nnc(SCc3ccc(C(=O)OC)o3)nc21	3.8
COc1cc(NC(=O)c2ccc(COCC(F)(F)F)o2)cc(OC)c1OC	i
CC(NC(=O)c1cn(C)c2ccc(S(=O)(=O)N3CCCC3)cc2c1=O)c1ccc2c(c1)OCCO2 (stereo unspecified)	i
COc1cccc(CC(NC(C)=O)C(=O)NC2CCN(c3nnnn3-c3ccccc3)CC2)c1 (stereo unspecified)	i
COc1ccc(N(CC(O)Cn2nnc3ccccc32)S(=O)(=O)c2ccc(C)cc2)cc1 (stereo unspecified)	i
COc1cccc(N2CCN(CC(=O)Nc3nnc(-c4ccccc4)s3)CC2)c1	2.4
CCOc1ccccc1-n1nnnc1SCC(=O)Nc1cc(C)on1	1.0
CCOc1ccc(OCC)c(NC(=O)C2CCCN2S(=O)(=O)c2cccc3cccnc23)c1 (stereo unspecified)	0.4
COc1cccc(-c2nnc3sc(-c4ccco4)nn23)c1	0.4
CCCc1cc(=O)[nH]c(SCC(=O)NC(=O)c2ccccc2)n1	0.4
COc1cccc(/C=N/NC(=O)CC2C(=O)NN=C2C)c1O (stereo unspecified)	i
Cc1c(C(=O)N2CCN(C)CC2)oc2ccc(S(=O)(=O)N3CCOCC3)cc12	0.9
CC(=O)N1C(C(=O)O)CSC1c1ccc(C)cc1 (stereo unspecified)	i
C#CC[N+](CC)(CC)CC#Cc1cccc(Cl)c1	0.5
Cc1c(NC(=S)N/N=C/c2ccc(O)cc2)c(=O)n(-c2ccccc2)n1C	i
COc1ccccc1N=C(C)C1=C(O)CSC1=O	0.4
COC(=O)c1c(C)[nH]c(C(=O)OCc2ccc(F)cc2)c1C	i
O=C(NCCCN1CCCC1=O)c1cccc(N2CCCC2=O)c1	i
Cc1cc(C(c2ccc(C)o2)c2ccc(C)o2)c(O)c([N+](=O)[O-])c1	i
CCOC(=O)N1CCC(NC(=O)C2CCN(C(=O)N3CC(C)Oc4ccccc43)CC2)CC1 (stereo unspecified)	i
CCCc1nnc(SCC(=O)Nc2ccc(OCC)cc2)n1N	i
COc1ncnc2c1cnn2-c1ccccc1	0.3
Cc1cc(C(=O)CSc2nc(N)cc(=O)[nH]2)c(C)n1CCc1ccc(F)cc1	i
Cc1nnc(NC2=NCCC2)o1	0.7

An excerpt of these results, in markdown:
| SMILES | H5N1 CPE |
| --- | --- |
| O=C(O)CCCC(=O)NCc1ccccn1 | i |
| O=C(c1ccc(S(=O)(=O)N2CCOCC2)cc1)N1CCc2ccccc2C1 | 0.2 |

(next part)
SMILES	H5N1 CPE
COc1cccc(-c2ccc(=O)n(CC(=O)NCCN3CCOCC3)n2)c1	i
CCOC(=O)C1CCN(CC(=O)Nc2c(C(=O)OC)[nH]c3ccc(Cl)cc23)CC1	7.9
CCOc1ccc(CCNC(=O)COC(=O)c2ccco2)cc1OCC	0.7
Cc1ccc(NS(=O)(=O)c2ccccc2Cl)c2c1CC(C)(C)O2	1.3
COC(=O)c1c(NC(=O)c2ccc(S(=O)(=O)N3CCOCC3)cc2)sc2c1CCN(C)C2	i
Cc1c(=O)n(OCc2ccccc2)c2ccccc2[n+]1[O-]	i
COc1ccc(-c2nnc(SCC(=O)Nc3ccc(Cl)cc3)n2C)cc1	i
CCCCc1c(C)c(C#N)c2[nH]c3ccccc3n2c1=O	0.1
Cc1cccc(OCC(=O)NC(C)C(=O)N/N=C/c2c(OCc3ccccc3)ccc3ccccc23)c1 (stereo unspecified)	i
CCCCN(C)CCCNC(=O)C1CC(=O)N(Cc2ccc(OC)cc2)C1 (stereo unspecified)	0.2
CCCS(=O)(=O)N1CCCC(C(=O)NCc2ccc3c(c2)OCO3)C1 (stereo unspecified)	0.3
COCCNC(=O)Cn1nc(C(F)(F)F)c(Cl)c1C	i
COC(=O)c1ccccc1N1C(=O)C2C(C1=O)C1C=CC2C12CC2 (stereo unspecified)	i
CCn1c(C)cc(/C=C2\NC(=O)N(CC(=O)Nc3cccc(C)c3)C2=O)c1C	i
Cc1ccc(-n2c(O)c(C=Nc3ccc(S(=O)(=O)N(C)C)cc3)c(=O)[nH]c2=O)cc1	i
CCOC(=O)C1=C(C)NC(=O)C(C#N)C1c1ccncc1 (stereo unspecified)	i
COC(=O)c1c(NC(NC(=O)C(C)(C)C)C(Cl)(Cl)Cl)sc2c1CCC2 (stereo unspecified)	0.1
O=C(CSc1nnc(-c2cccs2)n1-c1cccc(Cl)c1)c1cccc2c1OCCO2	0.3
O=C(O)C1C2C=CC(C2)C1C(=O)NCCc1ccccc1 (stereo unspecified)	1.0
Cc1ccccc1S(=O)(=O)Cc1ccc(C(=O)NCCCOC(C)C)o1	0.6

An excerpt from above in order of formula weight, low to high:
SMILES	H5N1 CPE
C#CC[N+](CC)(CC)CC#Cc1cccc(Cl)c1	0.5
COc1ccc2ccccc2c1CN1CCCC(CO)C1 (stereo unspecified)	1.9
Cc1cc(N)c(-n2cc3c(=O)n(C)c(=O)n(C)c3c2)cc1C	i
CC(C)(C)C1=C(C#N)C(c2ccc3c(c2)OCO3)C(C#N)=C(N)O1 (stereo unspecified)	i
COc1cccc(-c2ccc(=O)n(CC(=O)NCCN3CCOCC3)n2)c1	i
Cc1ccc(NC(=O)COc2ccccc2CNC(C)(C)CC(C)(C)C)cc1	i
Cc1ccccc1C(=O)NCc1nnc(SCC(=O)N2CCN(c3ccccc3)CC2)n1C	i

Remaining list, next part:
SMILES	H5N1 CPE
COc1ccccc1NC(=O)c1cc2ccc(O)cc2o/c1=N\O	i
Clc1ccc(-c2csc3ncnc(NCCN4CCOCC4)c23)cc1	1.0
O=C(NC1CCCCC1)C(c1ccco1)N(Cc1cccnc1)C(=O)C1COc2ccccc2O1 (stereo unspecified)	i
COc1cc2c(cc1NC(=O)COC(=O)Cn1cnc3ccccc31)oc1ccccc12	i
Cc1c(CCO)c(=O)n(-c2ccccc2)n1S(=O)(=O)c1ccc(Cl)cc1	i
CC(=O)Nc1ccc2nc(SCC(=O)Nc3ccc(N4CCOCC4)c(Cl)c3)sc2c1	2.6
CC(=O)c1c(N2CCOCC2)nc(=S)n(-c2cc(C)ccc2C)c1C	0.8
C=CCN(CC=C)C(=O)Nc1cc(Cl)ccc1OC	i
